# CSC inhib = cancer stem cell viability inhibitors, primary screen, luminescence; 300,000 tested, 1.1% active; AID 2717, 2010; cancer stem cell-like cells viability; inhibition, % at 7.5 µM;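 active means mean at 75% or more and at least half the replicates too; inconclusive means mean and replicates disagree; tested in HMLE shEcad cells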;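 further: 0% = median of negative and 100% = median of positive control wells; the first replicate is given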
# HIV Env fusion = inhibitors of HIV-1 Env-driven cell-cell fusion, primary screen, HeLa-JRFL effector, CEM21 target cells, luciferase. inhibition, % at 12.3 µM. AID 651610, 2012. 360,000 tested, 1.1% active;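 active means mean replicate inhibition score of at least 50 and every replicate individually at or above 50; inconclusive means only one of the two criteria met; inactive means mean below 50 and not all replicates reaching 50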;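 further: 0% = plate neutral controls and 100% = maraviroc near 300 nM; one replicate is shown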
# PABP FP inh = PABP poly(A) RNA binding inhibitors, primary screen, biochemical, fluorescence polarization, uHTS. AID 2014, 2009. Polyadenylate-binding protein 1 (Homo sapiens), P11940. inhibition, % at 35 µM. 290,000 tested, 1% active;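 active means 50% or more with normal probe brightness, or confirmed in later tests; inconclusive means above 50% with abnormal brightness, or retests that disagree; inactive means below 50% or failed in later tests; about a fifth of its hits are not listed in these tables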;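 further: calls also rest on retests at 20 µM and on dose response follow-up; controls were probe without protein and protein plus probe with vehicle; some compounds called inactive have numbers as strong as hits; many hits fall short of the cut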
# Target sequence (P11940 whole entry, looked up): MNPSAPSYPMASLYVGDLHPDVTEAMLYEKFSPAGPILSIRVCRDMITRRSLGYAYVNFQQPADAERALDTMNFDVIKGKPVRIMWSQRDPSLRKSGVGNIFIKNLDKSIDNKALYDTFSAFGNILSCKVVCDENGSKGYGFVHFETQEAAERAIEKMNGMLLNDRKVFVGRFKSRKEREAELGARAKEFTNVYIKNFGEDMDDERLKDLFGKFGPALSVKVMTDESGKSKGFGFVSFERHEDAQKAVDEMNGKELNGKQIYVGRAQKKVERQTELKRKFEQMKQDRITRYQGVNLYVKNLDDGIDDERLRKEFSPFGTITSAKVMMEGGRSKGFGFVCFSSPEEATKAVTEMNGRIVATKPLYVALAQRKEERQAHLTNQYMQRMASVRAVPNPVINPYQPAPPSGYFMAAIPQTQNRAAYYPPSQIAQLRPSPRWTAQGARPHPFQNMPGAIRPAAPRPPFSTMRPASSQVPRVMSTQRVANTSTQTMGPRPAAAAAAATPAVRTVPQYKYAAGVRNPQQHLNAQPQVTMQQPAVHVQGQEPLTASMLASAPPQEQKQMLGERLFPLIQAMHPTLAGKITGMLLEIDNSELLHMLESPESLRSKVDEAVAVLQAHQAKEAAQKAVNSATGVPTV
# UUG fidelity = modulators of yeast start codon fidelity, primary screen, whole organism, S. cerevisiae, single point, plate reader; S. cerevisiae UUG-firefly luciferase reporter, luminescence/redox ratio; activity score, % at 18.7 µM; 350,000 tested, 0.13% active;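 active means replicate mean at a twofold rise or more, about +100% in these data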;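 further: firefly luciferase made from a UUG start codon reports start codon fidelity; reporter light over untreated wells divided by growth signal over untreated wells; some hits fall short of that in this replicate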
# Rce1 inhib = yeast Rce1p protease inhibitors, primary screen, biochemical, fluorescence, cell-free homogeneous. yeast membranes, quenched prenylated peptide cleavage fluorescence. 290,000 tested, 0.27% active. calls only;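 active means fall in fluorescence gain of 50% or more versus controls, with final raw signal at or below 3038400; inconclusive means same 50% fall but final raw signal above 3038400; inactive means fall in fluorescence gain under 50%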;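 further: plate controls were neutral control wells for no effect and wells lacking membranes for full effect; tested at 10 µM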
# Target sequence (Q03530 whole entry, looked up): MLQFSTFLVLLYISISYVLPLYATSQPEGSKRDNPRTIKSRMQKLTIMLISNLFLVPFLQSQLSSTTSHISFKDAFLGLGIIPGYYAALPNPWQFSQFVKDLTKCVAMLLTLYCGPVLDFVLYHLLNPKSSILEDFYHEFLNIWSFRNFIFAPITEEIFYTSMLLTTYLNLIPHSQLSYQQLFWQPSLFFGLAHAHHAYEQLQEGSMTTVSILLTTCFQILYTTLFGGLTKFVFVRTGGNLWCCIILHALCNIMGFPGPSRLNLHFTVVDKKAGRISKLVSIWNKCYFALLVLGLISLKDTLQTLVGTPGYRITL
# MT1-MMP act inh = blockers of MT1-MMP proenzyme processing, primary screen, HT1080 RFP-PRO-GFP cells, GFP/RFP fluorescence. Matrix metalloproteinase-14 (Homo sapiens), P50281. GFP/RFP ratio fluorescence, overnight; percent of plate control window, DMSO zero. GFP/RFP ratio change, % at 20 µM. 360,000 tested, 0.061% active. AID 651647, 2012;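 active means GFP/RFP ratio change of at least 30% with cell ATP level not reduced by more than half and red fluorescence within 50% of control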; further: strong numbers were not always called active
#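 Assay system: HT1080 cells carrying an RFP-PRO-GFP reporter | Dosing: Single dose of 20 µM compound, 1% DMSO final | Incubation: Cells overnight before dosing, compound overnight, 37 °C, 5% CO2 | Evaluation: GFP/RFP fluorescence ratio | Control set: DMSO and RFP-L50D-GFP cell wells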
# eIF4H FP inh = human eIF4H binding inhibitors, primary screen, translation initiation inhibitor project, biochemical, uHTS, fluorescence polarization | Eukaryotic translation initiation factor 4H (Homo sapiens), Q15056 | eIF4H fluorescence polarization binding assay | inhibition, % at 35 µM | 290,000 tested, 0.94% active | AID 2012, 2009;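 active means 50% or more with normal probe brightness, or confirmed in later tests; inconclusive means above 50% with abnormal brightness, or retests that disagree; inactive means below 50% or failed in later tests; about a fifth of its hits are not listed in these tables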;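 further: calls also rest on retests at 20 µM and on dose response follow-up; 0% = protein and probe with vehicle and 100% = probe without protein; strong numbers were not always called active; many hits fall short of the cut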
# eIF4H FP inh retest = also measured in eIF4H FP inh; calls as there; inhibition, %; compound at 20 µM; confirmation average;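 mean of two retest wells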
# PABP FP inh retest = recorded beside PABP FP inh, whose call it bears; inhibition, %; compound at 20 µM; confirmation repeats;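 mean of two retest wells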
# MT1-MMP act inh RFP = second read-out of MT1-MMP act inh, no call of its own (marks repeat the call); RFP signal change, %; measured here: RFP expression control read;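 0 = vehicle wells; hits needed this value within 50% of zero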
# Numbers without * were called inactive; i = inactive; ? = inconclusive; · = not tested or not shown; & = joins results of further samples. Only part of the results is shown; count on the stated rates, not on these rows.
SMILES,CSC inhib,HIV Env fusion,PABP FP inh,UUG fidelity,Rce1 inhib,MT1-MMP act inh,MT1-MMP act inh RFP,eIF4H FP inh,others
CCn1c(SCC(=O)Nc2ccc(OC)cc2OC)nc2nc3c(cc2c1=O)COC(C)(C)C3,6,-1,2,2,i,1,-1,-5,
COc1ccc(C(=O)COC(=O)c2ccccc2NS(=O)(=O)c2ccc(O)c([N+](=O)[O-])c2)cc1,-10,1,9,·,i,5,3,0,
Cn1cnc2cc(NC(=O)c3ccc(Cl)cc3)ccc21,-9,-54,-5,-12,i,6,8,-6,
COC(=O)C(C)Sc1snnc1-c1ccccc1 (stereo not drawn),8,·,-6,-15,i,-2,0,-4,
CC(/C=C1\SC(=O)N(CC(=O)Nc2ccc(O)cc2)C1=O)=C\c1ccccc1,50,·,5,-4,i,-1,-2,6,
CCOCCCNC(=O)/C(C#N)=C/c1ccc(C(=O)OC)cc1,-1,22,-4,-9,i,0,4,1,
CCc1ccccc1NC(=O)C(CC)Sc1nc2cc3c(cc2c(=O)n1Cc1ccco1)OCO3 (stereo not drawn),67,-23,6,-3,i,1,2,7,
Nn1c(SCC(=O)Nc2ccc(OC(F)F)cc2)nnc(Cc2ccccc2)c1=O,-11,-33,·,-9,i,0,0,·,
O=C(OC1CCOC1=O)c1cccc(S(=O)(=O)Nc2ccc(F)cc2)c1 (stereo not drawn),-2,-10,-8,-11,i,2,5,-7,
COc1ccc(NC(=O)c2ccc(NCC3CCCO3)c([N+](=O)[O-])c2)cc1 (stereo not drawn),-11,23,-1,·,i,6,-2,5,
O=C(Cc1cn2ccsc2n1)Nc1ccccc1Oc1ccccc1,-4,·,3,·,i,10,4,-5,
CC1=C(C/C=C(\C)CCC[C@H](C)CCC[C@H](C)CCCC(C)C)C(=O)c2ccccc2C1=O,-6,·,·,-2,i,-2,5,·,
CC(C)(C)NC(=O)c1ccc(COc2ccccc2Br)o1,-11,·,7,-7,i,2,3,-8,
CC1CCN(C(=O)c2ccc3c(c2)C(=O)c2ccccc2-3)CC1,·,-2,·,-10,·,-2,2,·,
O=S(=O)(c1cccc2nsnc12)N1CCN(c2ncccn2)CC1,0,·,-1,-7,i,-3,-4,-1,
Oc1ccccc1CNc1ccc(Br)cn1,7,·,-14,-6,i,24,2,0,
CSc1ccc(-c2nc(O)c3cnccn23)cc1,-3,-16,13,-10,·,0,3,1,
CCCCNc1c(-c2ccc(SC3CCCCC3)cc2)nc2ccccn12,82*,-49,·,-29,i,2&7,-12&-12,·,
COC(=O)c1ccc(COC(=O)CNC(=O)CNC(=O)c2ccc(C)cc2)cc1,2,1,-7,·,i,-1,2,0,
O=C1NCC(c2ccccc2)C1C(=O)N/N=C\c1ccc(-c2cccc(Cl)c2Cl)o1 (stereo not drawn),30,·,2,-1,i,0,0,5,
O=C(CNC(=O)COc1ccccc1)NCc1cccnc1,-3,-6,-3,-10,·,1,2,-17,
Cc1cnc(CN2CCc3c([nH]c4ccccc34)C2C2CCCCC2)[nH]1 (stereo not drawn),-38,-94,5,-4,i,0,2,-1,
COc1ccccc1N(C)S(=O)(=O)c1ccc(C(=O)OCC(=O)c2c[nH]c3ccccc23)cc1,5,13,3,·,i,2,2,8,
COc1ccc(Oc2cc(C)c3ccccc3n2)cc1,5,·,2,-3,i,3,-1,-15,
O=C1c2ccccc2C(=O)N1CCCc1nc2ccccc2c(=O)n1Cc1ccco1,12,·,-7,-21,i,1,-9,-8,
# New compounds follow.
SMILES,CSC inhib,HIV Env fusion,PABP FP inh,UUG fidelity,Rce1 inhib,MT1-MMP act inh,MT1-MMP act inh RFP,eIF4H FP inh,others
COc1ccc(C2c3[nH]c4ccccc4c3CCN2C(=O)c2cc3ncccn3n2)c(F)c1 (stereo not drawn),-10,6,7,-15,i,-3,-4,-2,
CCOP(=O)(OCC)C(Nc1cc(Cl)cc(Cl)c1)c1cccc(O)c1 (stereo not drawn),9,26,-2,·,i,-1,-8,3,
Nc1ccc(S(=O)(=O)Nc2cc(Cl)c(N)c(Cl)c2)cc1,·,8,·,9,·,0,-2,·,
CC(=O)c1cccc(N=Cc2c(O)ccc3ccccc23)c1,-8,1,-1,-7,i,1,3,-17,
C[C@@]12CCC3[C@@](CCC4[C@@]3(C)CCC[C@@]4(C)C(=O)NC3CCCCC3)(CC1=O)C2 (stereo partly drawn),0,-10,·,-11,·,-10,-10,·,
CCCCOC(=O)c1ccc(-c2ccc(/C=N/NC(=S)NCC)o2)cc1,·,-49,8,·,i,0,4,-3,
CCC(=O)NNc1nc2c(C)c(C)ccc2s1,3,7,-16,-20,i,1,0,2,
CCc1ccc(NS(=O)(=O)c2c(C)nc3sc(CC)nn3c2=O)cc1,-1,-40,-1,-9,·,-1,-8,-13,
CCC(Oc1ccccc1)C(=O)Nc1ccccc1C(=O)N1CCN(C)CC1 (stereo not drawn),-19,-1,6,-1,i,1,3,10,
CSc1ncnc2c1ncn2CCCNCc1ccc2c(c1)OCO2,·,9,·,-14,·,2,5,·,
CC1=CC(=Nc2c(C)n(C)n(-c3ccccc3)c2=O)C=CC1=O,10,·,?,·,i,·,·,?,
COC(=O)c1ccc(CN2C(=O)c3ccccc3C2=O)cc1,-8,6,-14,0,i,-2,2,-8,
CC1(C)NC(=O)N(CC(=O)OCC(=O)Nc2cc(S(=O)(=O)N3CCCCCC3)ccc2Cl)C1=O,-14,-20,15,-9,i,-1,0,13,
CCn1c(SCC(=O)NCc2ccccc2)nnc1-c1ccccc1O,-1,·,31,-13,i,2,0,1,
CCN(CC)c1ccc(N=C2C(=O)Nc3ccccc32)cc1,-13,1,7,-18,i,52,58,9,
CCN(CC)CCn1cnc2c1c(=O)n(CCOC(=O)c1cc(OC)c(OC)c(OC)c1)c(=O)n2C,-4,11,-2,·,i,-1,2,-15,
CCCCCCC1CCC(c2nc(-c3ccncc3)no2)CC1 (stereo not drawn),31,13,-4,1,i,5,0,5,
NC(=O)NC1NC(=O)NC1=O (stereo not drawn),-7,·,10,2,i,-1,1,-5,
O=C(CCNC(=O)Cn1ccc2ccccc2c1=O)NCCN1CCN(c2cccc(Cl)c2)CC1,-10,·,-5,1,i,1,-11,-9,
Cc1ccc(NC(=O)COC(=O)c2ccc3c(c2)OCO3)c(C)c1,-2,1,-3,-10,i,-1,3,-6,
CCOc1cc2c(C#N)c(N3CCCCC3)nc(N)c2c(N)n1,-11,-48,120,-1,i,-15,3,127,eIF4H FP inh retest=-4;PABP FP inh retest=1
Cc1cc(C)nc(N2CCC(C(=O)NNC(=O)c3ccccc3)CC2)n1,-11,-11,11,-14,i,2,1,-5,
CCOC(=O)C1CCN(C(=O)CCNC(=O)c2ccccc2OC)CC1,-8,-6,22,-3,i,-3,3,-1,
C=CCOc1ccc(C2=NO[C@@H]3[C@@H]4C[C@@H]([C@H]5C(=O)N(C)C(=O)[C@@H]45)[C@H]23)cc1,3,-2,6,5,i,1,-2,-3,
CCN(CC(=O)NCc1ccc(F)cc1)C(=O)COc1ccc(C)c(C)c1,-3,23,6,-1,i,0,4,-1,
# (list continues)
SMILES,CSC inhib,HIV Env fusion,PABP FP inh,UUG fidelity,Rce1 inhib,MT1-MMP act inh,MT1-MMP act inh RFP,eIF4H FP inh,others
COc1ccc(OC)c(CN2CCN(C(=O)CNC(=O)c3ccccc3F)CC2)c1,3,3,·,-1,·,1,2,·,
CCOC(=O)C1CN(S(=O)(=O)c2cccc(C(F)(F)F)c2)c2cc(CC(=O)OC)ccc2O1 (stereo not drawn),-15,17,2,-15,i,-10,4,-4,
Cn1c(=O)c2c(nc(NCCOc3ccc(C(C)(C)C)cc3)n2C)n(C)c1=O,-7,16,-2,-5,i,-9,-22,4,
Cc1ccc(C(=O)OCC(=O)N2CCC(C)CC2)cc1S(=O)(=O)N1CCOCC1,·,-14,·,1,·,-3,-1,·,
Cc1ccc(C2=NN(CC(=O)NCc3cccnc3)C(=O)CC2)cc1,-7,·,-14,·,i,·,·,-4,
COc1ccc(Cl)cc1C(=O)NNC(=O)c1cccc(S(=O)(=O)N(C)C)c1,4,-15,5,·,i,7,7,-2,
Cc1ccccc1NS(=O)(=O)c1cccc2nsnc12,-16,3,6,-14,i,4,7,-8,
CC1=C/C(=C(/c2ccc(O)c(C)c2)c2ccccc2S(=O)(=O)O)C=CC1=O,·,12,·,25,·,10,0,·,
Cc1ccc(S(=O)(=O)NNC(=S)Nc2c(Cl)cccc2Cl)cc1,-1,-24,1,·,·,2,-1,3,
Cc1c(Cl)cccc1NC(=O)CSc1nc(=O)n(CCCN2CCOCC2)c2c1CCC2,-12,8,·,-18,i,-2,1,·,

# Two compounds drawn at random from the list so far, as already listed:
SMILES,CSC inhib,HIV Env fusion,PABP FP inh,UUG fidelity,Rce1 inhib,MT1-MMP act inh,MT1-MMP act inh RFP,eIF4H FP inh,others
Cc1c(Cl)cccc1NC(=O)CSc1nc(=O)n(CCCN2CCOCC2)c2c1CCC2,-12,8,·,-18,i,-2,1,·,
Cc1ccccc1NS(=O)(=O)c1cccc2nsnc12,-16,3,6,-14,i,4,7,-8,

# Among those listed so far, 10 contain an aryl methoxy group:
SMILES,CSC inhib,HIV Env fusion,PABP FP inh,UUG fidelity,Rce1 inhib,MT1-MMP act inh,MT1-MMP act inh RFP,eIF4H FP inh,others
CCn1c(SCC(=O)Nc2ccc(OC)cc2OC)nc2nc3c(cc2c1=O)COC(C)(C)C3,6,-1,2,2,i,1,-1,-5,
COc1ccc(C(=O)COC(=O)c2ccccc2NS(=O)(=O)c2ccc(O)c([N+](=O)[O-])c2)cc1,-10,1,9,·,i,5,3,0,
COc1ccc(NC(=O)c2ccc(NCC3CCCO3)c([N+](=O)[O-])c2)cc1 (stereo not drawn),-11,23,-1,·,i,6,-2,5,
COc1ccccc1N(C)S(=O)(=O)c1ccc(C(=O)OCC(=O)c2c[nH]c3ccccc23)cc1,5,13,3,·,i,2,2,8,
COc1ccc(Oc2cc(C)c3ccccc3n2)cc1,5,·,2,-3,i,3,-1,-15,
COc1ccc(C2c3[nH]c4ccccc4c3CCN2C(=O)c2cc3ncccn3n2)c(F)c1 (stereo not drawn),-10,6,7,-15,i,-3,-4,-2,
CCN(CC)CCn1cnc2c1c(=O)n(CCOC(=O)c1cc(OC)c(OC)c(OC)c1)c(=O)n2C,-4,11,-2,·,i,-1,2,-15,
CCOC(=O)C1CCN(C(=O)CCNC(=O)c2ccccc2OC)CC1,-8,-6,22,-3,i,-3,3,-1,
COc1ccc(OC)c(CN2CCN(C(=O)CNC(=O)c3ccccc3F)CC2)c1,3,3,·,-1,·,1,2,·,
COc1ccc(Cl)cc1C(=O)NNC(=O)c1cccc(S(=O)(=O)N(C)C)c1,4,-15,5,·,i,7,7,-2,
